VACV Venus inh: qHTS for Stage-Specific Inhibitors of Vaccinia Orthopoxvirus: Venus Reporter Primary qHTS; Potency, µM (titrated, usually from 36.5 µM), inactives show at the top dose activity change, negative = inhibition, actives largely listed as inhibitors; 0.46% of 330,000 active; Vaccinia virus Venus reporter expression, fluorescence; active means well fitted inhibition curve with a large enough effect; inconclusive means small, poorly fitted or top-dose-only effect; inactive means no such curve, though single readings can be large or run the other way; tested in A549 cells; note: nearly all actives have a fitted effect of over 30% in size; inactives centre near -10
VACV mCherry inh: qHTS for Stage-Specific Inhibitors of Vaccinia Orthopoxvirus: mCherry Reporter Primary qHTS; 0.63% of 310,000 active; Vaccinia virus mCherry reporter infection, fluorescence; about a quarter of the inactives have no number; Potency, µM (doses to about 36.5 µM), inactives show at the highest dose activity change, negative = inhibition, most hits filed as inhibitors; active = well fitted inhibition curve with a large enough effect; inconclusive = small, poorly fitted or top-dose-only effect; inactive = no such curve, though single readings can be large or run the other way; tested in A549 cells; note: nearly all actives have a fitted effect of over 35% in size; inactives centre near -10
Numbers without * were called inactive; i = inactive; ? = inconclusive; nt = no result given; [ ] = dose if it differs, or a comment. % is set by controls: 0 for no effect and ±100 for the full control effect; potency is the fitted concentration of half-maximal effect.

nr | SMILES | VACV Venus inh | VACV mCherry inh
1 | COc1ccc(C(=O)Nc2ccc(N3CCN(C(=O)c4ccccc4)CC3)cc2)cc1[N+](=O)[O-] | -14.3% | -18.9%
2 | Cc1ccc(Cl)cc1N1CCN(C(=O)c2cc(S(=O)(=O)N3CCCCCC3)cn2C)CC1 | -26.9% | -36.0%
3 | COc1ccc(OCCCC(=O)N(C)CC(=O)Nc2ccccc2Cl)cc1 | -0.9% | -0.9%
4 | CC1=CC(C)(C)NC(=S)N1NC(=O)c1ccccc1Cl | -3.0%[7.34 µM] | i[7.34 µM]
5 | COc1cc(C2CC(=O)Nc3cc4c(cc32)OCCO4)cc(OC)c1O (centres undefined) | -2.1% | -8.0%
6 | Cc1c(C(=O)NCCSCc2cccc(C(F)(F)F)c2)cnn1-c1ccc(Cl)cc1 | -6.6%[7.34 µM] | -2.1%[7.34 µM]
7 | CN=C(Nc1cc(Cl)ccc1Cl)SC1CC(=O)N(c2ccc(C(=O)OC)cc2)C1=O (centres undefined) | -25.9% | nt
8 | CC1CCN(c2nc3ccccc3n2CC(=O)c2ccccc2)CC1 | -4.6% | 12.1%
9 | CCCCn1c(NCc2cc(Cl)ccc2O)nc2ccccc21 | -12.2% | -22.4%
10 | O=C(NCCS(=O)(=O)NCc1ccccc1)c1ccccc1 | 0.7% | -7.8%
11 | Cc1ccc(N2CN=C(c3ccccc3)NC2=S)cc1 | -21.0% | -27.7%
12 | CC1CC(C)CN(C(=O)c2ccc3c(c2)N(Cc2ccccc2)CCS3)C1 (centres undefined) | -11.9% | -27.2%
13 | N#CCCCC#Cc1ccc2c(c1)COc1c3ccccc3nn1-2 | -24.6% | -23.4%
14 | COC1(OC)N=C(N)C2(C#N)C(c3ccccc3)NC(C)=CC12C#N (centres undefined) | -2.7% | -10.3%
15 | Cc1ccc(OCC(=O)Nc2ccc(S(=O)(=O)Nc3cc(C)nc(C)n3)cc2)c(Br)c1 | 7.0% | -9.0%
16 | CCC1C(=O)NCCN1C(=O)CCc1nnc(CCc2ccc(OC)cc2)o1 (centres undefined) | -3.9% | -9.6%
17 | COc1ccc(-n2c(SCC(=O)NC3CCCCC3)nc3c([nH]c4ccccc43)c2=O)cc1 | -1.9% | -1.9%
18 | Cc1ccc(N2C(S)=C(C#N)C(=O)NC2c2ccco2)cc1 (centres undefined) | -10.9% | -6.6%
19 | CC1CCC(NC(=O)CCS(=O)(=O)c2ccc3c(c2)NC(=O)CS3)CC1 (centres undefined) | -4.0% | -17.9%
20 | O=C(CC1(c2ccc(Cl)cc2)C2CC3CC(C2)CC1C3)NCCO (centres undefined) | -7.7% | i
21 | Cc1ccc(C(=O)N/C(=C\c2ccc(-c3cccc([N+](=O)[O-])c3)o2)C(=O)NC(C)(C)C)cc1 | -11.7% | -6.6%
22 | Cc1cc(C(=O)c2cccs2)c(N)s1 | -4.7% | -2.8%
23 | COc1cccc(C(NC(C)=O)c2nc(-c3cccc(C(F)(F)F)c3)cs2)c1 (centres undefined) | -9.2% | i
24 | CCOc1ccc(-n2nc3ccc(NC(=O)c4ccc(OC)c(Cl)c4)cc3n2)cc1 | -4.9% | -5.7%
25 | C/C(=N\NC(=O)OC(C)(C)C)c1ccc(-n2ccnc2)cc1 | -10.4% | -16.4%
26 | CC(NC(=O)c1cc(F)ccc1F)c1nnc2n1CCN(Cc1ccccc1O)CC2 (centres undefined) | 0.0% | -1.8%
27 | CC(C)c1nnc(NC(=O)CCC2CCCCC2)s1 | -9.8% | -17.7%
28 | CCOC(=O)C1CCN(C(=O)c2cn(CCOC)c(=O)c3c2c2ccccc2n3C)CC1 | -14.6% | -1.8%
29 | CN1CCN(c2ccc3c(c2)C2CC3CCN2C(=O)OCc2ccccc2)CC1 (centres undefined) | -14.1% | i
30 | CCOc1cc(/C=C2\SC(N3CCCCC3)=NC2=O)ccc1O | -10.4% | ?
31 | CC1(C)Cc2noc(N)c2C(C)(C)N1OC(=O)c1cccs1 | -13.4% | -9.6%
32 | Cc1[nH]c2ccc(OC(=O)N3CCOCC3)cc2c1C(=O)OC(C)C | -23.2% | -11.2%
33 | COC(=O)c1ccc(N)nc1 | -18.7% | i
34 | COc1ccccc1NC(=O)CSc1nnc(NC(=O)Nc2ccc(C)cc2)s1 | -14.9%[7.34 µM] | -6.3%[7.34 µM]
35 | COc1ccc(-c2nnc(N3CCC(C)CC3)c3ccccc23)cc1 | -11.3% | -9.0%
36 | CCOc1ccccc1CNCc1c(C(=O)O)c(C)n(Cc2ccc(C)cc2)c1C | 0.8% | -10.3%
37 | Cc1cccc(CNC(=O)c2cc3cc(S(=O)(=O)N4CCCCC4)ccc3n2C)c1 | -21.8% | -9.5%
38 | Cc1cccc(N2CCN(C(=O)CCc3c(C)nc4c(c3C)c(=O)n(C)c(=O)n4C)CC2)c1C | -4.1% | -1.1%
39 | COCCN1CCN(C(=O)C2CCC(=O)N(Cc3cccc(C(F)(F)F)c3)C2)CC1 (centres undefined) | -11.6% | -1.3%
40 | O=C(C1CCC(CNc2c(N3CCCCC3)c(=O)c2=O)CC1)N1CCCCC1 (centres undefined) | -12.1% | 7.5%
41 | Cc1ccc(S(=O)(=O)NC(C)C(=O)OCC(=O)Nc2sccc2C(N)=O)cc1 (centres undefined) | -14.2% | i
42 | COC(=O)c1c(NC(=O)c2ccc(C(C)(C)C)cc2)sc2c1CCC(C)C2 (centres undefined) | 1.6% | -6.3%
43 | COc1nc(NCc2ccco2)nc(N2CCC(C)CC2)n1 | -23.0% | nt
44 | CNS(=O)(=O)c1cc2c3c(cccc3c1)C(=O)NC2=O | -25.2% | -10.2%
45 | Cc1cc(Br)cc(C=Nc2ccc(N3CCOCC3)cc2)c1O | 8.1% | ?
46 | Cc1cccc(CN2CCC(CNC(=O)Cn3ncc4c([nH]c5ccc(C)cc54)c3=O)CC2)c1 | -10.7% | -10.0%
47 | O=S(=O)(c1ccccc1)c1nnn2c1nc(NC1CCCCC1)c1sccc12 | ? | ?
48 | CCNC(=O)COc1ccc(/C=C2\COc3ccccc3C2=O)cc1OC | -23.1% | -7.2%
49 | CC(C)CN(C(=O)COC(=O)CN1C(=O)c2ccccc2C1=O)c1c(N)n(Cc2ccccc2)c(=O)[nH]c1=O | 3.0% | -13.1%
50 | CCOC(=O)C1CCN(C(=O)Cc2ccc(C)cc2)CC1 | 6.4% | -7.3%
51 | COC(=O)c1sccc1S(=O)(=O)N(CC(=O)NCc1ccccc1)c1ccc(C)c(C)c1 | -0.3% | -8.2%
52 | CN(Cc1cccc(-c2cccnc2)c1)C(=O)Oc1ccc([N+](=O)[O-])cc1 | -18.5% | 14.7%
53 | O=C(COC(=O)c1ccc(Br)o1)Nc1ncc([N+](=O)[O-])s1 | -11.6% | -20.0%
54 | O=c1cc(O)c(-c2cccc(C(F)(F)F)c2)c(Cl)[nH]1 | -6.2% | i
55 | CCOc1ccc(N2C(=O)C(CC(=O)Nc3ccc(F)cc3)N(Cc3ccccn3)C2=S)cc1 (centres undefined) | -12.3% | -4.3%
56 | CCOc1ccc(C(=O)NC(=S)NCc2cccnc2)cc1 | -8.2% | -12.0%
57 | Cc1[nH]c2ccccc2c1C(=O)C(=O)NC1CC(=O)N(c2ccccc2)C1 (centres undefined) | -4.8%[7.34 µM] | 1.9%[7.34 µM]
58 | O=C(NC1(C(F)(F)F)C(=O)Nc2c1c(=O)[nH]c(=O)n2-c1ccccc1)c1ccccc1 (centres undefined) | -9.2% | -4.8%
59 | CCN(CC)C(=O)[C@H]1C[C@H](CC(=O)NCCCN(C)C)C(=O)N2CCc3c([nH]c4cc(CCC(=O)N(C)C)ccc34)[C@]12C | 0.6% | -9.4%
60 | CSc1ccc(S(=O)(=O)NCC(=O)OCCOc2ccccc2)cc1[N+](=O)[O-] | 3.4% | -6.3%

Single records, as listed above:
CN(Cc1cccc(-c2cccnc2)c1)C(=O)Oc1ccc([N+](=O)[O-])cc1 reads VACV Venus inh: -18.5%; VACV mCherry inh: 14.7%
Cc1cccc(CNC(=O)c2cc3cc(S(=O)(=O)N4CCCCC4)ccc3n2C)c1 reads VACV Venus inh: -21.8%; VACV mCherry inh: -9.5%

Further records:
nr | SMILES | VACV Venus inh | VACV mCherry inh
61 | O=C(NC(=S)Nc1ccccc1C(F)(F)F)c1ccccc1F | -9.6% | i
62 | CCc1ccc(-n2c(=O)c3sc4ccccc4c3n(CC(=O)NC3CCCC3)c2=O)cc1 | ? | ?
63 | CC(C)CNS(=O)(=O)c1ccc(CCC(=O)N2CCCC2)cc1 | -16.6% | -1.0%
64 | Fc1ccccc1CN1CCCCCCC1 | -4.8% | -15.1%
65 | Cc1nnc(SCC(=O)Nc2ccc(N3CCOCC3)cc2)n1-c1ccccc1 | -5.6% | -14.3%
66 | O=C1C(=O)N(c2ccc(O)cc2)C(c2ccccc2[N+](=O)[O-])/C1=C(\O)c1ccccc1 (centres undefined) | -6.3% | ?
67 | O=C1Nc2ccccc2C(=O)N2[C@H](c3ccc(F)cc3)[C@@H]3C(=O)N(Cc4ccccc4)C(=O)[C@@H]3[C@H]12 | ? | i
68 | COC(=O)N/N=C/c1cn(CC(C)COc2ccccc2)c2ccccc12 (centres undefined) | -25.4% | i
69 | O=C(COC(=O)CCN1C(=O)C2CC=CCC2C1=O)NCCc1ccccc1 (centres undefined) | -9.0% | -19.1%
70 | COc1cccc2ccc(CC(O)(c3ccccc3)c3ccccc3)nc12 | -17.0% | i
71 | Cc1ccc(-n2nnc3c(=O)n(CC(=O)N4CCOCC4)cnc32)cc1 | -4.0% | i
72 | CC(CC(=O)N1CCN(c2ccc(C(F)(F)F)cn2)CC1)n1ccnc1 (centres undefined) | -18.9% | -20.3%
73 | CN1CC(=O)NC1=NC(=O)c1ccc(Cl)c(S(=O)(=O)N2CCCCCC2)c1 | -15.4% | nt
74 | COc1ccc(-n2nc3c(c2NC(=O)C(=O)NCc2ccccc2)CSC3)cc1 | -22.0% | -19.3%
75 | O=C1CC(C(F)(F)C(F)(F)C(F)(F)C(F)(F)F)=Nc2ccccc2N1 | -9.9% | i
76 | Cc1cccc(NS(=O)(=O)c2ccc(C)c(C(=O)NCc3ccccn3)c2)c1 | -16.2% | -13.5%
77 | C/C(=N\NC(=O)CN(c1ccccc1Br)S(C)(=O)=O)c1ccc2c(c1)OCCO2 | -8.1% | -11.9%
78 | CC(CN1CCN(C)CC1)OC(=O)c1ccc(Cl)cc1 (centres undefined) | -11.4% | -9.1%
79 | Cc1nc2c3cnn(-c4ccc(C)c(C)c4)c3ncn2n1 | -9.1% | nt
80 | CC(C)C(NC(=O)C(c1ccccc1)c1ccccc1)c1nc2ccccc2[nH]1 (centres undefined) | 1.9% | nt
81 | Oc1ccccc1-c1nc2cnccn2c1Nc1ccc(Cl)cc1 | -15.6% | -25.7%
82 | COC(=O)c1ccc2c(c1C(=O)OC)CN(S(=O)(=O)C(C)(C)C)[C@H]2CCO | -7.8% | -7.8%
83 | Cc1ccc(S(=O)(=O)Nc2cc(C)cn(Cc3ccc(F)cc3)c2=O)cc1 | -15.2% | ?
84 | CN(C)c1ccc(-c2ccnc3c2CC(C)(C(=O)Nc2cccc(C(F)(F)F)c2)O3)cc1 (centres undefined) | -14.0% | i
85 | COCC[N+]1(C)CCCCC1 | -12.9% | i
86 | COc1cc2ccccc2cc1C(=O)N1CCN(c2nc3c(F)cccc3s2)CC1 | -15.5% | -16.3%
87 | CCc1cccc(NC(=O)c2cc(-c3ccccc3)n[nH]2)c1 | 1.5% | -7.9%
88 | O=C1CCC/C=C\C[C@@H](CC(=O)N(CCO)Cc2ccccc2)C(=O)NCCO1 | -17.3% | i
89 | CCN(CC)C(=O)c1sc(NC(=O)C(C)Sc2nc(-c3ccccc3)cc(C(F)(F)F)n2)c(C(=O)OC)c1C (centres undefined) | -24.0% | -4.8%
90 | O=C(NCCCN1CCOCC1)c1ccccc1NS(=O)(=O)c1cc([N+](=O)[O-])ccc1Cl | -5.4% | i
91 | CCOC(=O)C1CN(Cc2ccccc2)C(=O)C1=O (centres undefined) | -4.2% | i
92 | O=C(/C=C/c1ccc(Cl)cc1)N(Cc1ccccc1)C1CCS(=O)(=O)C1 (centres undefined) | -11.4% | -30.5%
93 | Cc1[nH]cnc1C(=O)N/N=C/c1c(Cl)cccc1Cl | 0.2% | -26.6%
94 | C[C@@H]1CN([C@H](C)CO)S(=O)(=O)c2ccc(Br)cc2O[C@H]1CN(C)C(=O)Nc1cccc(F)c1 | -25.4% | -13.3%
95 | CCCN(C(=O)CCc1nc(-c2ccc(C)cc2)no1)c1ccc(OCC)cc1 | -9.4% | -10.7%
96 | CCOC(=O)C1CCCN(C(=O)Cn2nc(Cc3cccnc3)c3ccccc3c2=O)C1 (centres undefined) | -9.8% | i
97 | CC1=NNC(=O)C1CCC(=O)N/N=C\c1ccc(Cl)c(Cl)c1 (centres undefined) | 3.9% | -17.6%
98 | COc1ccc(-c2cc(=O)oc3cc(OCC(=O)N(C)C4CCS(=O)(=O)C4)ccc23)cc1 (centres undefined) | -25.1% | -25.7%
99 | O=C(CNCc1ccccc1Cl)Nc1ccccc1N1CCCCC1 | 5.5% | i
100 | CC(C)(C)OC(=O)N1CCC(NC(=O)c2[nH]cnc2C(=O)Nc2ccon2)CC1 | -21.2% | i
101 | COc1ccccc1C(=O)C1CCCN(C(=O)CCc2ccccn2)C1 (centres undefined) | -15.3% | -4.3%
102 | CN(c1ccccc1)c1cc(Br)nc(Br)c1 | -15.9% | -20.7%
103 | O=C(Nc1cccc(Cl)c1)NC1CC2CCC(C1)N2Cc1ccco1 (centres undefined) | -11.7% | -29.6%
104 | COc1ccc(N(Cc2ccccc2)S(=O)(=O)c2cccc(C(=O)NC3=NCCS3)c2)cc1 | -20.2% | ?
